High-throughput results from PubChem BioAssay.
KCNQ2 block: KCNQ2 potassium channel inhibitors, primary screen, cell-based, CHO-K1, FluxOR thallium flux, B-score (AID 2156). O88943. 20 min; hits give low values; only compounds with negative scores are shown here; some inactives read as strong as hits. B-score at 10 µM. hit rate 1.1% among 310,000;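 active means fluorescence ratio B-score at most minus 3 library SDs, with starting brightness B-score within 2 library SDs, cut at about -5.5 in these data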
Target sequence (O88943 whole entry, looked up): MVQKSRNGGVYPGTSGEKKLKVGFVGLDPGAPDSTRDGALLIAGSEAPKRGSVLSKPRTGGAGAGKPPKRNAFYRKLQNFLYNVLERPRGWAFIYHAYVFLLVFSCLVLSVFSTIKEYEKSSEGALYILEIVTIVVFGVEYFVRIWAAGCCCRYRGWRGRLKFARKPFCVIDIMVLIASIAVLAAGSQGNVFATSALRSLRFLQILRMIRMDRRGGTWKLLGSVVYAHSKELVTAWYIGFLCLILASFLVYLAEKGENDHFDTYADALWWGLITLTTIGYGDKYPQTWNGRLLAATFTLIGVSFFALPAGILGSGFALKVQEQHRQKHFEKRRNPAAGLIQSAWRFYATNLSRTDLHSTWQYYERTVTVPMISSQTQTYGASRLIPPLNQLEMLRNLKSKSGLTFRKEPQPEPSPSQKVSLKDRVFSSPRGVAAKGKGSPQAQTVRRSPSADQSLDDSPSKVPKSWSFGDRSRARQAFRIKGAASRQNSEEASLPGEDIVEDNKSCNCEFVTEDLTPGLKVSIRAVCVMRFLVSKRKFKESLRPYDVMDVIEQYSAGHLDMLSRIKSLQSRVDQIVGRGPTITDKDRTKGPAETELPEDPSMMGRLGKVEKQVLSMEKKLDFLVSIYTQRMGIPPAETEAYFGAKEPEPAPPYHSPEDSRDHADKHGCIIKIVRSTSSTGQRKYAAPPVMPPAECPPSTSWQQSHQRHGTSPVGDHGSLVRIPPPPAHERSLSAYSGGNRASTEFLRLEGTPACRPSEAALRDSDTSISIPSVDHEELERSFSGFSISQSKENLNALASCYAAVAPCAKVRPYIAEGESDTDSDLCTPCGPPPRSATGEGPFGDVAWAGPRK
KCNQ2 block baseline: also measured in KCNQ2 block; calls as there; B-score; measured here: initial fluorescence intensity artifact check;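 brightness before thallium and not channel activity; 0 = typical well and far values either way flag optical interference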
An asterisk follows results filed as active. Only part of the results is shown. The share of hits here may be higher or lower than overall.

A first look, 13 compounds:
Screening COC(=O)c1ccc(Oc2ccc3nnc(C)n3n2)cc1 returned KCNQ2 block inactive and KCNQ2 block baseline -1.7.
Screening O=C1CCc2cc(S(=O)(=O)NCc3ccccc3Cl)cc3c2N1CC3 returned KCNQ2 block inactive and KCNQ2 block baseline 2.9.
`CCn1cnc2cc(NCc3cccc(OC)c3O)ccc21` gave KCNQ2 block inactive and KCNQ2 block baseline -0.43.
CCCCCC(=O)Nc1ccc(S(=O)(=O)Nc2nccc(C)n2)cc1 was read as KCNQ2 block inactive and KCNQ2 block baseline 1.5.
COc1cc(S(=O)(=O)NCc2ccncc2)c(OC)cc1Cl was read as KCNQ2 block inactive and KCNQ2 block baseline 1.4.
Screening Nc1nc(SCC(=O)N2CCCCC2)[nH]c(=O)c1NC(=O)c1ccccc1F returned KCNQ2 block inactive and KCNQ2 block baseline -1.6.
O=C(c1cn(-c2ccccc2)nc1-c1ccc(F)cc1)N1CCCCC1 was read as KCNQ2 block inactive and KCNQ2 block baseline -0.95.
For CCc1ccc(C2=NN(c3ccc(S(N)(=O)=O)cc3)C(c3ccc(F)cc3)C2)cc1 (stereo not given) the results were KCNQ2 block inactive and KCNQ2 block baseline -2.3.
For O=C(NNc1cc(Cl)ccc1Cl)c1cccnc1Cl the results were KCNQ2 block inactive and KCNQ2 block baseline 0.77.
Screening C#CCOCCOCCOCCNc1nc(N2CCN(C(=O)C([C@@H](C)CC)n3cc(C(N)CO)nn3)CC2)nc(N2CCN(C(=O)[C@H](CCC(=O)O)n3cc(C(N)CC(C)C)nn3)CC2)n1 (stereo not given in full) returned KCNQ2 block inactive and KCNQ2 block baseline -0.29.
`O=C(CCNC(=O)C1CCN(S(=O)(=O)c2ccccc2)CC1)NCc1cccc(C(F)(F)F)c1` gave KCNQ2 block inactive and KCNQ2 block baseline 3.2.
Screening Cc1cc(C)nc(SCNC(=O)c2ccc(Cl)cc2)n1 returned KCNQ2 block inactive and KCNQ2 block baseline 1.1.
`O=C(CCc1ccncc1)N1CCCC(Nc2ccc(F)cc2)C1` (stereo not given) gave KCNQ2 block inactive and KCNQ2 block baseline 2.2.

The whole of this part (from the top)
Screening COC(=O)c1ccc(Oc2ccc3nnc(C)n3n2)cc1 returned KCNQ2 block inactive and KCNQ2 block baseline -1.7.
Screening O=C1CCc2cc(S(=O)(=O)NCc3ccccc3Cl)cc3c2N1CC3 returned KCNQ2 block inactive and KCNQ2 block baseline 2.9.
`CCn1cnc2cc(NCc3cccc(OC)c3O)ccc21` gave KCNQ2 block inactive and KCNQ2 block baseline -0.43.
CCCCCC(=O)Nc1ccc(S(=O)(=O)Nc2nccc(C)n2)cc1 was read as KCNQ2 block inactive and KCNQ2 block baseline 1.5.
COc1cc(S(=O)(=O)NCc2ccncc2)c(OC)cc1Cl was read as KCNQ2 block inactive and KCNQ2 block baseline 1.4.
Screening Nc1nc(SCC(=O)N2CCCCC2)[nH]c(=O)c1NC(=O)c1ccccc1F returned KCNQ2 block inactive and KCNQ2 block baseline -1.6.
O=C(c1cn(-c2ccccc2)nc1-c1ccc(F)cc1)N1CCCCC1 was read as KCNQ2 block inactive and KCNQ2 block baseline -0.95.
For CCc1ccc(C2=NN(c3ccc(S(N)(=O)=O)cc3)C(c3ccc(F)cc3)C2)cc1 (stereo not given) the results were KCNQ2 block inactive and KCNQ2 block baseline -2.3.
For O=C(NNc1cc(Cl)ccc1Cl)c1cccnc1Cl the results were KCNQ2 block inactive and KCNQ2 block baseline 0.77.
Screening C#CCOCCOCCOCCNc1nc(N2CCN(C(=O)C([C@@H](C)CC)n3cc(C(N)CO)nn3)CC2)nc(N2CCN(C(=O)[C@H](CCC(=O)O)n3cc(C(N)CC(C)C)nn3)CC2)n1 (stereo not given in full) returned KCNQ2 block inactive and KCNQ2 block baseline -0.29.
`O=C(CCNC(=O)C1CCN(S(=O)(=O)c2ccccc2)CC1)NCc1cccc(C(F)(F)F)c1` gave KCNQ2 block inactive and KCNQ2 block baseline 3.2.
Screening Cc1cc(C)nc(SCNC(=O)c2ccc(Cl)cc2)n1 returned KCNQ2 block inactive and KCNQ2 block baseline 1.1.
`O=C(CCc1ccncc1)N1CCCC(Nc2ccc(F)cc2)C1` (stereo not given) gave KCNQ2 block inactive and KCNQ2 block baseline 2.2.
For CCCCS(=O)(=O)N1CCN(S(=O)(=O)c2ccc(Cl)s2)CC1 the results were KCNQ2 block inactive and KCNQ2 block baseline 1.8.
Screening CCN(CC)CCOc1ccc(/C(=C(\Cl)c2ccccc2)c2ccccc2)cc1 returned KCNQ2 block -7.6* and KCNQ2 block baseline -0.56*.
For O=C(/C=C/c1cccs1)N1CCCCC1 the results were KCNQ2 block inactive and KCNQ2 block baseline -0.14.
`Cc1[nH][nH]c(=O)c1C(c1ccc(O)c([N+](=O)[O-])c1)c1c(C)[nH][nH]c1=O` gave KCNQ2 block inactive and KCNQ2 block baseline -0.5.
Screening S=C1NCCOCCNC(=S)NCCOCCOCCOCCN1 returned KCNQ2 block inactive and KCNQ2 block baseline -0.68.
Screening Clc1ccc(Nc2cc(-c3ccccc3)nc3ncnn23)cc1 returned KCNQ2 block inactive and KCNQ2 block baseline -1.2.
COc1ccccc1C(=O)NCCC(=O)N1CC=C(c2ccccc2)CC1 was read as KCNQ2 block inactive and KCNQ2 block baseline -1.8.
Screening Cc1ccc(CN(Cc2cc3cccc(C)c3[nH]c2=O)C(=O)N(C)C)cc1 returned KCNQ2 block inactive and KCNQ2 block baseline -1.2.
Cc1noc(C)c1S(=O)(=O)N1CCN(C(c2ccccc2)c2ccc(Cl)cc2)CC1 (stereo not given) was read as KCNQ2 block inactive and KCNQ2 block baseline -1.2.
Screening Cc1ccc(S(=O)(=O)N(CC(=O)N2CCN(c3ccc(F)cc3)CC2)C2CCCCC2)cc1 returned KCNQ2 block inactive and KCNQ2 block baseline 0.92.
`CCOc1ccc(N/C(N)=N/c2nc(C)c(C)c(=O)[nH]2)cc1` gave KCNQ2 block inactive and KCNQ2 block baseline -0.46.
Screening CCOc1ccc(-c2csc(NNC3=NCCCCC3)n2)cc1 returned KCNQ2 block inactive and KCNQ2 block baseline 1.3.
CCOc1ccc2oc(C(=O)NC(C)(C)CC)c(C)c2c1 was read as KCNQ2 block inactive and KCNQ2 block baseline -0.83.
CCOC(=O)c1cc(-c2ccc(F)cc2)n(CC(=O)NC(C)CC)c1C (stereo not given) was read as KCNQ2 block inactive and KCNQ2 block baseline -2.3.
C/C(=C\c1ccccc1)C(=O)NCCc1ccccc1 was read as KCNQ2 block inactive and KCNQ2 block baseline -1.7.
For COc1cccc(NC(=O)C2CCN(C(=O)NC3CCCCC3)CC2)c1 the results were KCNQ2 block inactive and KCNQ2 block baseline -0.13.
COc1ccccc1CNc1nc2ccccc2n1CCN1CCCCC1 was read as KCNQ2 block inactive and KCNQ2 block baseline 0.7.
Screening O=C(Nc1ccccc1)C(Cl)C(=O)c1ccccc1 (stereo not given) returned KCNQ2 block inactive and KCNQ2 block baseline 3.2.
For COc1ccc(-c2nc(-c3ccccc3)nc(N3CCN(C)CC3)c2C#N)cc1 the results were KCNQ2 block inactive and KCNQ2 block baseline 0.75.
`Cc1cc(NC(=S)N(Cc2ccc(Cl)cc2)Cc2ccc(C(=O)O)cc2)ccc1Cl` gave KCNQ2 block inactive and KCNQ2 block baseline -2.
`CCOC(=O)c1c(NC(=O)CN2CCCc3ccccc32)sc(C)c1C` gave KCNQ2 block inactive and KCNQ2 block baseline -0.2.
Screening CCN1CCN(C(=O)CSc2nc(N)cc(N)n2)CC1 returned KCNQ2 block inactive and KCNQ2 block baseline -0.56.
COc1cc(/C=N/Nc2nc(-c3ccc(S(=O)(=O)N(C)C)cc3)cs2)ccc1O was read as KCNQ2 block inactive and KCNQ2 block baseline 0.07.
`COc1ccc(Cl)cc1NC(=O)CN(C)C(=O)c1ccc2c(c1)OCCO2` gave KCNQ2 block inactive and KCNQ2 block baseline 1.6.
Cc1ccccc1OCCn1cc(C(=S)N2CCCC2)c2ccccc21 was read as KCNQ2 block inactive and KCNQ2 block baseline -0.02.
`Cc1ccc(S(=O)(=O)CCC(=O)OCc2ccccc2)cc1` gave KCNQ2 block inactive and KCNQ2 block baseline -0.28.
`Nc1nnc(SCC(=O)c2ccc([N+](=O)[O-])cc2)s1` gave KCNQ2 block inactive and KCNQ2 block baseline 0.73.
Screening NC(=O)c1ccc(N2CCCCCC2)c([N+](=O)[O-])c1 returned KCNQ2 block inactive and KCNQ2 block baseline -1.6.
`COc1cc(C(=S)N2CCCC2)ccc1OC(=O)c1ccc(Cl)cc1[N+](=O)[O-]` gave KCNQ2 block inactive and KCNQ2 block baseline 0.24.
Screening CN(C)c1cccc(NC(=O)c2cccc3ccccc23)c1 returned KCNQ2 block inactive and KCNQ2 block baseline -0.9.
COc1cc(OC)cc(C(=O)NNC(=O)CNC(=O)c2ccc(Br)o2)c1 was read as KCNQ2 block inactive and KCNQ2 block baseline -0.15.
Screening CC1(C)Oc2ccc3ccc(=O)oc3c2C(/C=N/O)=C1Cl returned KCNQ2 block inactive and KCNQ2 block baseline -0.16.
Screening O=C1c2cccc3cccc(c23)C(=O)N1CCN1CCN(C(=S)Nc2ccccc2)CC1 returned KCNQ2 block inactive and KCNQ2 block baseline 0.58.
O=c1cc(CO)oc(CN2CCN(c3ccccc3F)CC2)c1O was read as KCNQ2 block inactive and KCNQ2 block baseline 0.07.
For Cc1ccc(S(=O)(=O)NC2CC(C)(C)NC(C)(C)C2)cc1C the results were KCNQ2 block inactive and KCNQ2 block baseline 0.08.
For CCCCCC(=O)N1CC2(CC(c3cccc(NC(=O)COc4ccc(Cl)cc4)c3)=NO2)C[C@@H]1C(N)=O (stereo not given in full) the results were KCNQ2 block inactive and KCNQ2 block baseline 0.67.
For CCOC(=O)C1(CC2CCCCO2)CCN(C(=O)Nc2ccc(C)c(C)c2)CC1 (stereo not given) the results were KCNQ2 block inactive and KCNQ2 block baseline -1.2.
For Cc1ccc(C(=O)Cc2nnc(C)s2)cc1 the results were KCNQ2 block inactive and KCNQ2 block baseline -0.4.
For COc1ccc(CCNC(=O)CN(c2ccccc2OC)S(C)(=O)=O)cc1 the results were KCNQ2 block inactive and KCNQ2 block baseline 0.32.
For COc1ccc(C(=O)C2CCCN(C(=O)c3ccc4nccnc4c3)C2)c(C)c1 (stereo not given) the results were KCNQ2 block inactive and KCNQ2 block baseline -0.02.
O=C1c2ccccc2C(O)N1Cc1ccccc1 (stereo not given) was read as KCNQ2 block inactive and KCNQ2 block baseline -1.
`COc1ccccc1NC(CC(=O)c1ccccc1)C(=O)OCC(=O)c1ccc(F)cc1` (stereo not given) gave KCNQ2 block inactive and KCNQ2 block baseline 0.34.
`O=C(NCc1ccccc1)C(=O)c1cn(CC(=O)N2CCOCC2)c2ccccc12` gave KCNQ2 block inactive and KCNQ2 block baseline 0.84.
For Cc1cc(C)cc(NC(=O)Nc2ccc(N3CCCCC3)cc2)c1 the results were KCNQ2 block inactive and KCNQ2 block baseline 0.83.
For O=C(Nc1ccc2cn[nH]c2c1)c1ccccc1F the results were KCNQ2 block inactive and KCNQ2 block baseline -1.6.
For CCOC(=O)C1CCN(C(=O)COc2ccc(S(=O)(=O)NC(C)C)cc2Cl)CC1 the results were KCNQ2 block inactive and KCNQ2 block baseline -1.2.
Cc1ccc2nc(C)cc(Nc3ccc4c(c3)OCCO4)c2c1 was read as KCNQ2 block inactive and KCNQ2 block baseline -1.1.
`O=C1/C(=C/c2ccc3c(c2)OCO3)CCC/C1=C\c1ccc2c(c1)OCO2` gave KCNQ2 block inactive and KCNQ2 block baseline 0.88.
For Cc1nn(-c2ccccc2)c(C)c1/C=N\N1CCN(c2ccc(Cl)cc2)CC1 the results were KCNQ2 block inactive and KCNQ2 block baseline 1.7.
Screening COc1ccc(C(=O)N/C(=C\c2cn(S(=O)(=O)N(C)C)c3ccccc23)C(=O)NC(C)C)cc1 returned KCNQ2 block inactive and KCNQ2 block baseline 0.52.
Screening Cc1ccc(C)c(CSCc2nc3ccccc3[nH]2)c1 returned KCNQ2 block inactive and KCNQ2 block baseline 0.01.
For C=CCN(C(=O)Cn1nnc2ccccc21)C(C(=O)NCCOC)c1ccc(OC)cc1OC (stereo not given) the results were KCNQ2 block inactive and KCNQ2 block baseline 2.7.
`COCCCN1CN(S(=O)(=O)c2ccc(Cl)cc2)c2nc3ccccc3nc21` gave KCNQ2 block inactive and KCNQ2 block baseline 1.4.
`CCC(CC)C(=O)Nc1nnc(CCc2ccccc2)s1` gave KCNQ2 block inactive and KCNQ2 block baseline 0.3.
Cc1ccc(C2(C)NC(=O)N(CC(=O)N(Cc3ccccc3)C(C)(C)C)C2=O)cc1 (stereo not given) was read as KCNQ2 block inactive and KCNQ2 block baseline -2.9.
Screening O=C(Nc1cc([N+](=O)[O-])ccc1N1CCOCC1)c1ccco1 returned KCNQ2 block inactive and KCNQ2 block baseline -0.03.
Screening CCCCn1c(SCC(=O)O)nc2ccccc21 returned KCNQ2 block inactive and KCNQ2 block baseline -1.4.
For CCOc1ccc(-n2c(-c3ccccc3)nnc2-c2ccccc2)cc1 the results were KCNQ2 block inactive and KCNQ2 block baseline 0.73.
CC1(CCCN2C(=O)c3ccccc3C2=O)OCCO1 was read as KCNQ2 block inactive and KCNQ2 block baseline 0.02.
`Cc1cccc(NS(=O)(=O)c2ccc(C(=O)N3CCCC3)cc2)c1C` gave KCNQ2 block inactive and KCNQ2 block baseline 0.46.
For CC(C)CC(NC(=O)C(CC(C)C)NC(=O)OC(C)(C)C)C(=O)O (stereo not given) the results were KCNQ2 block inactive and KCNQ2 block baseline 2.3.
For CC(=O)c1ccc(OCC(C)Oc2ccc(C#N)cc2)cc1 (stereo not given) the results were KCNQ2 block inactive and KCNQ2 block baseline 0.45.
For COc1cc(OC)c2c(-c3ccccc3)cc(=O)oc2c1C(CCN1CCCC(C)C1)c1ccc2c(c1)OCO2 (stereo not given) the results were KCNQ2 block inactive and KCNQ2 block baseline 0.79.
COc1ccccc1NC(=O)Nc1ccncc1 was read as KCNQ2 block inactive and KCNQ2 block baseline 0.56.
CC(C)(C)c1ccc(C(=O)NC(=S)Nc2ccc(N3CCOCC3)cc2)cc1 was read as KCNQ2 block inactive and KCNQ2 block baseline 0.71.
For c1ccc(-c2cc(-c3nc4ccccc4[nH]3)c3ccccc3n2)cc1 the results were KCNQ2 block inactive and KCNQ2 block baseline 2.3.
